High-throughput results from PubChem BioAssay.
Mtb betalactam = beta-lactam sensitization of Mtb H37Rv; M. tuberculosis H37Rv growth with meropenem, percent inhibition; hits of this screen are not shown here; inhibition, % at 25 µM; 330,000 tested, 0.27% active;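 active = about 74% or more and at least 40 points above the plate without the antibiotic, then above 30% in a dose series; inconclusive = first-round hits that could not be retested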;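 also: growth measured after seven days incubation then overnight dye step; 0% = bacteria only wells and 100% = bacteria with antibiotic; twin plates without the antibiotic show which effects depend on it; some results filed as inactive read as strong as hits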
The depositor's hits bear a star; ? = inconclusive.

Cc1ccc(S(=O)(=O)N(C)C)cc1NC(=O)C(C)OC(=O)C1CCCCC1 (stereo not given)
- Mtb betalactam: -7

CC(=O)Nc1ccc(C(=O)CN2CCN(c3ccccc3)CC2)cc1
- Mtb betalactam: -4

O=C(COC(=O)/C=C/c1cccc(Cl)c1)Nc1cccc(S(=O)(=O)NC2=NCCC2)c1
- Mtb betalactam: -7

CC[C@@]1(C(=O)OC)N[C@H](CN(C)C(=O)NC(C)C)[C@@H]2C(=O)N(C)C(=O)[C@@H]21
- Mtb betalactam: -11

Cc1cccc(C)c1NC(=O)CN1C(=O)C2CC=CCC2C1=O (stereo not given)
- Mtb betalactam: -6

O=C(COC(=O)c1ccccc1Br)NCC1CCCO1 (stereo not given)
- Mtb betalactam: -4

COc1ccc(S(=O)(=O)N2CCCCC2)cc1NC(=O)CNc1ccccc1C(C)=O
- Mtb betalactam: -3

O=C(N/N=C\c1cc2c(cc1Cl)OCO2)c1cccs1
- Mtb betalactam: -6

COc1ccc(NC(=O)c2ccc3c(c2)NC(=O)CS3)cc1
- Mtb betalactam: -2

COc1cccc(-c2ccc3ncnc(NCc4ccc5c(c4)OCO5)c3c2)c1
- Mtb betalactam: 26

O=C(OCCOc1ccccc1)c1cccc(S(=O)(=O)N2CCOCC2)c1
- Mtb betalactam: 12

Cc1nnc(SCC(=O)NCCC2=CCCCC2)[nH]c1=O
- Mtb betalactam: -1

O=C(COc1ccc(S(=O)(=O)N2CCOCC2)cc1)N1CCOCC1
- Mtb betalactam: -15

CCCn1c(SCC(=O)Nc2cc(C(=O)O)ccc2C)nc2sc3c(c2c1=O)CCC3
- Mtb betalactam: -4

CCN(CC)S(=O)(=O)c1ccc(C(=O)NNC(=O)C2COc3ccccc3O2)cc1 (stereo not given)
- Mtb betalactam: 9

CC(NS(=O)(=O)c1ccc(Br)cc1)C(=O)Nc1nc2ccccc2[nH]1 (stereo not given)
- Mtb betalactam: -2

COc1ccccc1CC(=O)OC(C)C(=O)Nc1ccc(S(=O)(=O)N2CCCCC2)cc1 (stereo not given)
- Mtb betalactam: -3

COc1cccc(CN(C)C(=O)CSCC(=O)Nc2cccc(C)c2)c1OC
- Mtb betalactam: -13

CC(C)(C)c1ccc(C(=O)O[C@H]2[C@H](Cc3ccccc3)NS(=O)(=O)[C@H]3C[C@@H]4C=C[C@]23O4)cc1
- Mtb betalactam: 0

COc1ccc([C@@H]2CC=C(C(=O)O)CN2S(=O)(=O)c2ccc(Cl)cc2)cc1
- Mtb betalactam: -6

CN(Cc1ccco1)c1ncnc2ccc(-c3ccccc3Cl)cc12
- Mtb betalactam: 70

O=C(Nc1ccc(C(F)(F)F)cc1)C1CCCCN1S(=O)(=O)c1ccccc1 (stereo not given)
- Mtb betalactam: 2

CCOC(=O)c1c(C)[nH]c(C(=O)CN(C)CC(=O)Nc2ccccc2C(F)(F)F)c1C
- Mtb betalactam: 1

CCOC(=O)c1c(C)[nH]c(C(=O)Nc2cc(OCC)c(N3CCOCC3)cc2OCC)c1C
- Mtb betalactam: 5

O=C(COc1ccc(Br)cc1Cl)NNC(=O)c1ccccc1
- Mtb betalactam: 0

Cc1ccc(C(=O)NNCC(=O)Nc2ccc(Cl)cc2F)cc1
- Mtb betalactam: 42

Cc1cccc(/C=N/NC(=O)c2ccc(NC(=O)c3ccc(Cl)cc3)cc2)n1
- Mtb betalactam: 46

CCc1cccc2c(C(=O)COC(=O)[C@@H]3CC(O)CN3S(=O)(=O)c3ccccc3[N+](=O)[O-])c[nH]c12 (stereo not given in full)
- Mtb betalactam: 7

CC(=O)Nc1ccc(S[C@@H](CCN2CC[C@H](O)CCC2=O)c2ccccc2)cc1
- Mtb betalactam: -7

CCC(CO)Oc1cc(NC(=O)c2ccc(F)cc2)c2ncn(C(C)C)c2c1 (stereo not given)
- Mtb betalactam: -5

COc1cc(OC)cc(-c2c(C#Cc3ccsc3)c3cc(-c4ccc5cc[nH]c5c4)ccc3n2C)c1
- Mtb betalactam: 13

Cc1ccc(C)c(NC(=O)CN(C)C(=O)c2cc3ccccc3oc2=O)c1
- Mtb betalactam: -1

CN(C(=O)COC(=O)CCC(=O)c1ccc(F)cc1)C1CCCCC1
- Mtb betalactam: -6

COc1cc(C)ccc1OCC(=O)Nc1ccc2c(c1)OCO2
- Mtb betalactam: -5

Cc1ccc(S(=O)(=O)Nc2nc(CN3CCOCC3)nc3sc(C)c(C)c23)cc1
- Mtb betalactam: -3

NC(=O)c1ccc(NC(=O)CN2C(=O)NC3(CCCCCCC3)C2=O)cc1
- Mtb betalactam: -6

COc1ccc(Cl)cc1NC(=O)CN(C)C(=O)c1ccc2n[nH]nc2c1
- Mtb betalactam: 4

C#CCOCCOCCOCCNc1nc(N2CCN(C(=O)CCCCCCCCCCNC(=O)Cn3cc(C[C@@H](C)O)nn3)CC2)nc(N2CCN(C(=O)CCCCCCCCCCNC(=O)[C@@H](CCC(=O)O)n3cc(CCCCCN)nn3)CC2)n1
- Mtb betalactam: -4

C#CCN1C(C)=C(C(=O)OC)C(c2cccc([N+](=O)[O-])c2)C(C(=O)OCC)=C1C (stereo not given)
- Mtb betalactam: -2

O=C(CN(Cc1ccc(Br)cc1)S(=O)(=O)c1ccccc1)NCc1ccccn1
- Mtb betalactam: ?

CCN(CC)S(=O)(=O)c1ccc(/C=C/C(=O)OCC(=O)NNC(=O)c2ccc(OC)cc2)cc1
- Mtb betalactam: 3

Cc1ccc(CNC(=O)C2CSC3(C)CCC(=O)N23)cc1 (stereo not given)
- Mtb betalactam: -9

COc1ccc(OC)c(S(=O)(=O)N2CCCC(C(=O)NCc3ccccn3)C2)c1 (stereo not given)
- Mtb betalactam: -10

C=CC[C@@H](CC(=O)N[C@@H](CO)Cc1ccccc1)C(=O)N[C@H](C)COC(=O)[C@@H](CC=C)Cc1ccc(F)cc1
- Mtb betalactam: -3

O=C(O)CCn1c(=O)oc2cc(S(=O)(=O)N3CCCC3)ccc21
- Mtb betalactam: 2

N#C/C(=C\c1ccc(O)c(O)c1)C(=O)NCc1ccccc1
- Mtb betalactam: 4

CCOc1ccc(NS(=O)(=O)c2cc(C(=O)NCCCN3CCOCC3)ccc2C)cc1
- Mtb betalactam: 4

Nc1nc(N)nc(-c2cccc(Cl)c2Cl)n1
- Mtb betalactam: -5

OCCN1CCN(Cc2ccc3ccccc3c2)CC1
- Mtb betalactam: -2

COc1ccc(C(=O)N[C@H](C(=O)NCCCSc2ccccc2)C(C)C)cc1
- Mtb betalactam: -10

Arranged by count of non-hydrogen atoms (lowest first): some entries from above
Nc1nc(N)nc(-c2cccc(Cl)c2Cl)n1
- Mtb betalactam: -5

OCCN1CCN(Cc2ccc3ccccc3c2)CC1
- Mtb betalactam: -2

COc1ccc(C(=O)N[C@H](C(=O)NCCCSc2ccccc2)C(C)C)cc1
- Mtb betalactam: -10

Later entries.
CCN(C[C@H]1N[C@@](Cc2ccccc2)(C(=O)OC)[C@H]2C(=O)N(C)C(=O)[C@@H]12)S(=O)(=O)c1ccc(OC(F)(F)F)cc1
- Mtb betalactam: 2

N#Cc1ccccc1OCC(=O)NNC(=O)CNC(=O)c1cccc(Br)c1
- Mtb betalactam: -1

O=C(COC(=O)c1ccccc1Br)NC(=O)NCc1ccccc1
- Mtb betalactam: 5

COc1ccc(/C=C2\CCn3c2nc2ccccc2c3=O)cc1OC
- Mtb betalactam: 3

Cc1nc(NC(=O)COC(=O)c2ccc(CO)cc2)c(Cl)cc1Cl
- Mtb betalactam: -6

C/C(=N\NC(=O)c1ccc(-n2cnnn2)cc1)c1ccc(Cl)cc1
- Mtb betalactam: -2

O=[N+]([O-])c1ccccc1S(=O)(=O)N1CCSCC1
- Mtb betalactam: 4

Clc1cccc(-c2ccc(C3Nc4cccc5cccc(c45)N3)o2)c1
- Mtb betalactam: 2

Nc1cc(C(=O)OCC(=O)c2ccc(CC(=O)N3CCOCC3)s2)ccc1Cl
- Mtb betalactam: -1

CC(C)(C)OC(=O)C[C@@H]1C/C=C\C[C@@H](CC(=O)N[C@@H](CO)Cc2ccccc2)C(=O)NC[C@@H](c2ccccc2)OC1=O
- Mtb betalactam: -14

Cc1ccc(S(=O)(=O)N2[C@@H](c3ccccc3)C(C(=O)O)=CC[C@H]2c2ccc(C(C)C)cc2)cc1
- Mtb betalactam: -1

CC(C)(C)OC(=O)C[C@H]1C/C=C\C[C@@H](CC(=O)NCCO)C(=O)N[C@H](C(C)(C)C)COC1=O
- Mtb betalactam: 0

Cc1ccc(S(=O)(=O)N2CCOCC2)cc1NC(=O)c1ccc(F)cc1F
- Mtb betalactam: -2

COC(=O)C1=C(C)N(Cc2ccccc2)C(=NCc2cccc(Cl)c2)N[C@H]1c1cccc(F)c1
- Mtb betalactam: 100

CC(=O)N1CCN(S(=O)(=O)c2cccc(C(=O)NC3CCCC3)c2)CC1
- Mtb betalactam: -9

C[C@H](CO)N1C[C@H](C)[C@@H](CN(C)S(=O)(=O)c2cn(C)cn2)Oc2c(NS(=O)(=O)c3cccs3)cccc2C1=O
- Mtb betalactam: -2

Cc1nc(SCC(=O)N(CC(C)C)C2CCS(=O)(=O)C2)c2ccccc2n1 (stereo not given)
- Mtb betalactam: -4

COc1ccc(-c2nn(-c3ccccc3)cc2C(=O)Nc2cccc(C(=O)O)c2)cc1[N+](=O)[O-]
- Mtb betalactam: 0

O=C(CC1CC2CCC1C2)NCCc1ccc(Cl)cc1 (stereo not given)
- Mtb betalactam: 0

COc1cc(OC)cc(-c2sc3ccc(OC)cc3c2-c2ccc3cc[nH]c3c2)c1
- Mtb betalactam: 9

COc1ccccc1NCCC(=O)OCC(=O)Nc1ccccc1Cl
- Mtb betalactam: -10

COc1ccc(S(=O)(=O)N2CCN(CC(=O)NC(Cc3ccccc3)C(C)=O)CC2)cc1 (stereo not given)
- Mtb betalactam: -10

CNS(=O)(=O)c1cccc(C(=O)OCCCC(=O)c2ccccc2)c1
- Mtb betalactam: -6

COc1ccc(S(=O)(=O)N2CCN(c3cnccn3)CC2)cc1OC
- Mtb betalactam: 1

CCc1cccc(NC(=O)CSCc2nc3sc(C)c(C)c3c(=O)[nH]2)c1
- Mtb betalactam: -7

C[C@H](CO)N1C[C@H](C)[C@@H](CN(C)Cc2ccncc2)Oc2c(cccc2N(C)C)C1=O
- Mtb betalactam: 0

CCN(C(=O)COC(=O)COc1ccc(Cl)c(C)c1)C1CCS(=O)(=O)C1 (stereo not given)
- Mtb betalactam: -11

COc1ccccc1N(CC(=O)Nc1cc(C)on1)S(=O)(=O)c1cccc(C(F)(F)F)c1
- Mtb betalactam: 5

COc1cc(NC(=O)COC(=O)c2cc(S(=O)(=O)N3CCOCC3)ccc2F)cc(OC)c1
- Mtb betalactam: -1

CCC(C)Nc1nnc(SCC(=O)c2c(N)n(C3CC3)c(=O)[nH]c2=O)s1 (stereo not given)
- Mtb betalactam: 8

COc1ccc(NC(=O)CN2C(=O)NC3(CCCCC3C)C2=O)cc1S(=O)(=O)N1CCOCC1 (stereo not given)
- Mtb betalactam: 3

COc1cc(OC)cc(C(=O)NCC(=O)OCc2cc(=O)oc3cc(OC)ccc23)c1
- Mtb betalactam: -10

CC(=O)c1cccc(NC(=O)CN2C(=O)C(=O)N(Cc3ccco3)C2=O)c1
- Mtb betalactam: -4

O=C(O)CCC(=O)OCCc1cc2ccccc2c(=O)o1
- Mtb betalactam: 6

C/C=C/C1=CC(=O)C[C@H](c2ccc(Cl)cc2)C1
- Mtb betalactam: 1

COc1ccc(OCc2nnc(SCC(=O)Nc3cccc(C(C)=O)c3)o2)cc1
- Mtb betalactam: 1

CC(C)(C)CNC(=O)c1cccc2c1C(=O)c1ccc(N3CCCC3)cc1S2(=O)=O
- Mtb betalactam: 8

O=C(COc1cc(F)ccc1[N+](=O)[O-])Nc1cccc(S(=O)(=O)NC2=NCCC2)c1
- Mtb betalactam: 5

CCCCN1CC(=O)N2[C@H]3c4cc(Cl)ccc4OC[C@@H]3[C@H](c3ccccc3)[C@]2(C)C1=O
- Mtb betalactam: 7

N#Cc1cc([N+](=O)[O-])ccc1NC(=O)COC(=O)c1cnccn1
- Mtb betalactam: 3

COc1ccc(S(=O)(=O)Nc2ccc(Cl)cn2)cc1
- Mtb betalactam: -5

CN(c1ccc(OCC(=O)Nc2ccccc2C(=O)O)cc1)S(=O)(=O)c1ccc(Cl)cc1
- Mtb betalactam: -7

COc1ccc(CCNC(=O)[C@H](C)N2C(=O)N3CCc4c([nH]c5ccccc45)[C@@]3(C)C2=O)cc1OC
- Mtb betalactam: 1

COc1ccc(C(=O)Nc2ccccc2)cc1NC(=O)c1ccc([N+](=O)[O-])cc1
- Mtb betalactam: 5

CC(Oc1cccnc1[N+](=O)[O-])C(=O)N1CCc2ccccc21 (stereo not given)
- Mtb betalactam: -5

CCCn1c(C)c(C(=O)c2cccc3ccccc23)c2ccccc21
- Mtb betalactam: 8

CC(NC(=O)CN(C)S(=O)(=O)c1ccc(Br)s1)c1ccccc1 (stereo not given)
- Mtb betalactam: -9

CN(Cc1ccccc1F)C(=O)CN1CCN(S(=O)(=O)c2ccc3c(c2)OCCCO3)CC1
- Mtb betalactam: 3

CCc1ccc(-c2nc(SCC(=O)NC3CC3)n[nH]2)cc1
- Mtb betalactam: 0

CN(CC(=O)NCC1CCCCC1)CC(=O)Nc1ccc(F)cc1
- Mtb betalactam: -8

CC(C)CN(C(=O)COC(=O)c1ccc2c(c1)OCO2)c1c(N)n(Cc2ccccc2)c(=O)[nH]c1=O
- Mtb betalactam: 2

Cc1ccnc2nc(C(=O)OCC(=O)Nc3ccc4c(c3)OCCO4)nn12
- Mtb betalactam: -6

COCc1ccc(-c2c(-c3ccsc3)oc(=O)c3cc(OC)c(OC)cc23)cc1
- Mtb betalactam: 1

CCOC(=O)Oc1c(OC)cc(C(=O)O[C@@H]2C[C@@H]3CN4CCc5c([nH]c6cc(OC)ccc56)[C@H]4C[C@@H]3[C@H](C(=O)OC)[C@H]2OC)cc1OC
- Mtb betalactam: 95

C#CCOCCOCCOCCNc1nc(N2CCN(C(=O)[C@H](CCCCN)n3cc([C@@H](N)CC(N)=O)nn3)CC2)nc(N2CCN(C(=O)[C@H](CCCCN)n3cc([C@@H](N)CC(N)=O)nn3)CC2)n1
- Mtb betalactam: -3

COc1ccc(-c2cc3ccccc3cn2)cc1
- Mtb betalactam: 29

COc1cccc(NC(=O)CN(c2ccccc2OC)S(=O)(=O)c2cccs2)c1
- Mtb betalactam: -10

COc1ccc(CNC(=O)CN(C)S(=O)(=O)c2ccc(Br)s2)cc1
- Mtb betalactam: -3

Some of the compounds tested; the hit share may differ from the screen's.
